Measles inh: inhibitors of measles virus growth in cells, primary screen, measles RdRp inhibitor project, cell-based, single point, HTS. z-score (no concentration beside the values). 0.1% of 33,000 active. infected Vero cells, GFP fluorescence, 64 h; active compounds read low;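 active = z-score under -3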;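 note: score is relative to mean and SD of the compound wells of a plate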
* = called active by the depositor.

Measles inh | SMILES
-0.7 | COc1cc(C(=O)O)c(C2Oc3ccccc3C3CC(c4ccccc4)=NN32)cc1OC (configuration not stated)
0.41 | CCC(C)Nc1ncnc2c1cnn2-c1ccc(C)cc1C (configuration not stated)
-0.21 | O=C1c2ccccc2C(O)(Cc2ccccc2)N1CCCN1CCOCC1 (configuration not stated)
-1.4 | O=C(CCn1c(SCc2ccccc2F)nc2cc3c(cc2c1=O)OCO3)N1CCN(c2ccccc2)CC1
2 | CCC(=O)N1CCc2cc(Br)cc(S(=O)(=O)N3CCCc4ccccc43)c21
0.07 | CN1CCN(C(=O)c2ccc3c(c2)[nH]c(=S)n2c4ccccc4nc32)CC1
-0.82 | CCOC(=O)c1cnc2c(C)c(Cl)ccc2c1Nc1ccc(C(=O)O)cc1
-0.24 | COc1ccc(OC)c(NC(=O)CCn2c(=S)[nH]c3ccccc3c2=O)c1

Continued.
Measles inh | SMILES
-1.1 | CCOC(=O)c1cc2cc(C)ccc2[nH]1
-0.19 | COCCNC(=O)c1ccc2c(=O)n(Cc3ccc4c(c3)OCO4)c(=O)[nH]c2c1
-0.91 | Cc1ccc(-c2nc(Nc3ccc4c(c3)OCO4)c3ccccc3n2)cc1
1.2 | CCOC(=O)c1ccc2ncc(C(=O)OCC)c(Nc3cccc(C(F)(F)F)c3)c2c1
0.67 | CCN(CC)C(=O)C1c2ccccc2C(=O)N(CCOC)C1c1ccc(F)cc1 (configuration not stated)
-0.29 | Cc1c(OCc2ccc(F)cc2)ccc2c3c(c(=O)oc12)CCC3
-1.1 | O=C(COC(=O)c1ccccc1-c1ccccc1)c1ccccc1
6.2 | Nc1c(C(=O)Nc2ccc(S(N)(=O)=O)cc2)sc2nc(-c3cccs3)cc(C(F)(F)F)c12

(list continues)
Measles inh | SMILES
-0.06 | Cc1cc(C(=O)NCc2cccnc2)c2ccccc2n1
-1.9 | COc1ccc(CNC(=O)C2CCN(S(=O)(=O)N3CCCCC3)CC2)c(OC)c1
-0.07 | O=C(COC(=O)CN1C(=O)C(=O)c2ccccc21)NCc1ccco1
-1.1 | Cc1ccc(NC(=O)CC2Sc3ccccc3NC2=O)cc1C (configuration not stated)
2.5 | CC(NC(=O)c1cc(=O)[nH]c2ccc(Br)cc12)c1ccc2c(c1)OCCO2 (configuration not stated)
0.6 | CCOc1ccc(C(=O)NCC(=O)n2nc(C)cc2C)cc1
0.79 | O=C(CSc1nnc(-c2cccs2)n1-c1ccccc1)Nc1ccc(Cl)cc1
0.69 | O=C(COc1ccccc1Cl)N1CCCc2ccccc21

(cont.)
Measles inh | SMILES
-0.55 | CSc1oc(-c2ccc(F)cc2)nc1S(=O)(=O)c1ccc(Br)cc1
2.5 | NC(=O)c1ccc(-n2nnnc2SCc2ccc(Cl)cc2)cc1
0.63 | COc1ccc(O)c(C2NC(CC(C)C)(C(=O)O)C3C(=O)N(Cc4ccccc4)C(=O)C23)c1 (configuration not stated)
-0.19 | Cc1ccc(S(=O)(=O)Nc2ccccc2C(=O)Nc2ccccc2-c2nc3ccccc3s2)cc1
0.05 | O=C1c2ccccc2C(=O)N1CCc1c[nH]c2ccc(O)cc12
-0.8 | COc1ccc(-n2nc(C(=O)Nc3nc4ccc(OC)cc4s3)c3ccccc3c2=O)c(OC)c1
-0.46 | CCSc1nc2c(c(=O)n1Cc1ccco1)C1(CCCCC1)Cc1ccccc1-2
0.31 | Cc1ccc(CN2C(=O)CN(CC(=O)NCCc3ccc(Cl)cc3)C(=O)C2c2ccccc2F)cc1 (configuration not stated)

Next structures
Measles inh | SMILES
-0.51 | N#CCCN1CCN(c2ccc(Nc3ccnc4cc5ccccc5cc34)cc2)CC1
2.6 | CC12CN(C(=O)c3ccccc3Cl)CC(C)(CN(C(=O)c3ccccc3Cl)C1)C2=O
1.5 | CCC(C)(C)C1CCc2c(sc(NC(=O)c3cc4ccccc4c(=O)o3)c2C(N)=O)C1 (configuration not stated)
-1.5 | CCC1Oc2ccc(Cl)cc2N(CC(=O)NCCN(C)C)C1=O (configuration not stated)
0.3 | Cc1cccc(N2CCN(C(=O)c3ccc(N4CC5CC(C4)c4cccc(=O)n4C5)c(NC(=O)c4cccc(C(F)(F)F)c4)c3)CC2C)c1 (configuration not stated)
0.75 | O=C(COC(=O)c1ccc2c(c1)C(=O)N(c1ccccc1Cl)C2=O)c1cccc([N+](=O)[O-])c1
1.1 | COc1ccc(C2NC(c3ccc(OC)cc3)C(C)C(=O)C2C)cc1 (configuration not stated)
0.26 | COC(=O)c1sc(C(=O)OC)c2c1OCCO2

Reprinted at random: 2 compounds from above, in no set order.
Measles inh | SMILES
1.5 | CCC(C)(C)C1CCc2c(sc(NC(=O)c3cc4ccccc4c(=O)o3)c2C(N)=O)C1 (configuration not stated)
0.75 | O=C(COC(=O)c1ccc2c(c1)C(=O)N(c1ccccc1Cl)C2=O)c1cccc([N+](=O)[O-])c1

Continued.
Measles inh | SMILES
-0.5 | Cc1ccc(Cl)cc1NC(=O)CCNS(=O)(=O)c1cccc2nonc12
0.02 | CCOc1cc(C2NC(=S)NC(C)=C2C(=O)Nc2ccc(F)cc2)ccc1O (configuration not stated)
-0.37 | CCCC1=C(C(=O)OCC)C(c2cc(Br)ccc2OC)n2ncnc2N1 (configuration not stated)
-1.7 | Cc1cccc(Oc2nc3c(c(=O)n(C)c(=O)n3C)n2Cc2ccc(Cl)cc2)c1C
-0.25 | O=C(NC1CCCC1)c1sc(=S)n2c1[nH]c(=O)c1ccccc12
3.5 | CCOC(=O)C1C(c2ccc([N+](=O)[O-])cc2)NC(=S)NC1(C)O (configuration not stated)
1.4 | Cc1ccc(NC(=O)C2CCN(S(=O)(=O)c3c(C)n[nH]c3C)CC2)cc1C
0.04 | Cc1c(Br)c([N+](=O)[O-])nn1CC(=O)N(C)Cc1ccccc1

Later entries.
Measles inh | SMILES
0.82 | Cc1cccn2c(=O)c3cc(C(=O)NCc4ccc(F)cc4)sc3nc12
-0.62 | CCCCS(=O)(=O)NC1=NCN(c2ccc([N+](=O)[O-])cc2)CN1
0.09 | CN(C)c1oc(-c2ccc(Cl)cc2)nc1S(=O)(=O)c1ccc(Cl)cc1
-0.71 | CC1CCN(S(=O)(=O)c2ccc3nc(-c4ccccn4)cc(C(=O)NC4CCCC(C)C4C)c3c2)CC1 (configuration not stated)
5.5 | O=C1Nc2ccccc2Oc2cc([N+](=O)[O-])cc(Oc3ccccc3)c21
0.77 | COc1ccc(S(=O)(=O)N2CCC(C(=O)NC(C)c3ccccc3)CC2)cc1OC (configuration not stated)
0.31 | CCCC1=NN(S(=O)(=O)c2ccc(C)cc2)C(O)(C(F)(F)F)C1 (configuration not stated)
-0.71 | CCc1ccc(-c2nc3cc(NS(=O)(=O)c4ccccc4)ccc3o2)cc1

(continued)
Measles inh | SMILES
-1.1 | Cc1cccc(NC(=O)CSCC(=O)Nc2ccc3ccccc3c2)c1C
0.07 | COc1cc2c(cc1OC)C(COc1ccc([N+](=O)[O-])cc1)N(C(=O)c1cccc(C(F)(F)F)c1)CC2 (configuration not stated)
2.9 | O=C(Nc1cc(C(F)(F)F)ccc1Cl)c1ccc(F)c(S(=O)(=O)N2CCCCC2)c1
2.7 | CCN(CC)S(=O)(=O)c1ccc(C(=O)Nc2nc3c(cc4c5c(cccc53)CC4)s2)cc1
0.12 | O=C1c2ccc3c4c(ccc(c24)C(=O)N1c1ccc(O)cc1)C(=O)N(c1ccc(O)cc1)C3=O
-0.66 | CC(=O)N1CCN(CC(O)COc2ccc(C)cc2)CC1 (configuration not stated)
0.87 | O=C1NC(=O)c2ccc3c4c(ccc1c24)C(=O)N(c1ccc(Cl)cc1)C3=O
-2.1 | O=C1C(c2ccc(F)cc2)N(CCc2ccccc2)C(=O)CN1C1CCCCC1 (configuration not stated)

(continued)
Measles inh | SMILES
0.85 | CN(CCNC(=O)c1ccc2c(c1)NC(=O)C(N1CCOCC1)S2)Cc1ccccc1 (configuration not stated)
0.68 | CCSc1nc2sc3c(c2c(=O)n1-c1ccccc1)CC(C(C)C)OC3 (configuration not stated)
0.78 | Cc1ccccc1OCC(=O)Nc1ccc(Cl)c(-c2nc3cc(Cl)ccc3o2)c1
0.76 | O=C(C1CCN(S(=O)(=O)c2cnc[nH]2)CC1)N1CCN(c2ccccc2)CC1
2.2 | CC(=O)Cn1c2ccccc2n2nc(C)c(=O)nc12
-1 | CCOc1ccc(C2=Nn3c(CC)nnc3SC2)cc1
0.89 | COc1cccc(-c2cc(C(=O)Nc3ccc(C)cc3)no2)c1
0.37 | NC(=O)c1nn2c(C(F)(F)F)cc(-c3ccc(F)cc3)nc2c1Cl

(listing goes on)
Measles inh | SMILES
-0.35 | Cc1cc(Br)ccc1NS(=O)(=O)c1cc(Br)cc2c1N(C(=O)C1CC1)CC2
-0.67 | Cc1ccc(-n2ncc3c(N(C)Cc4ccccc4)ncnc32)c(C)c1
-1.1 | CCOc1sc2nc(C)n(CC(=O)Nc3ccc(N(C)C)cc3)c(=O)c2c1C
-0.41 | COc1ccc2nc3sc(C(=O)Nc4cccc(C)n4)cc3cc2c1
0.42 | COC(=O)c1nc2n(n1)C(c1cccc(Cl)c1)C(C(=O)OC1CCCCC1)=C(C)N2 (configuration not stated)
-0.72 | Cc1ccc2nc(-c3ccccc3)c(Nc3ccc4c(c3)OCCO4)n2c1
2.1 | COc1cc(-c2ccc3c(c2)OCO3)cc(=O)c2c(C)oc(C)c12
-0.41 | CCCC(=O)Nc1sc2c(c1C(=O)OC)CCC2

Next entries
Measles inh | SMILES
1.7 | CCC(=O)N1CCc2cc(S(=O)(=O)N3c4ccc(F)cc4CCC3C)ccc21 (configuration not stated)
0.25 | Fc1ccc(-c2csc(N3CCOCC3)n2)cc1
0.01 | O=S(=O)(NC(c1ccccc1)c1ccccc1)c1cccc2nsnc12
-0.67 | COc1cc(-c2nc3ccccn3c2N=Cc2cc([N+](=O)[O-])c(O)cc2Cl)ccc1O
1.5 | CCOC(=O)C1=C(C)NC2=C(C(=O)CC(c3ccccc3)C2)C1c1cc(OC)c(OC)c(OC)c1 (configuration not stated)
-0.03 | COC(=O)c1cn(-c2ccccc2)nc1-c1ccc(C)cc1
0.47 | S=c1[nH]nc(-c2ccc(Cl)cc2)n1C1CCCCC1
-0.56 | Cc1nc2ccccn2c1-c1csc(Nc2ccccn2)n1

An excerpt of these results, with each value named.
> O=S(=O)(NC(c1ccccc1)c1ccccc1)c1cccc2nsnc12
  Measles inh: 0.01

> COc1cc(-c2nc3ccccn3c2N=Cc2cc([N+](=O)[O-])c(O)cc2Cl)ccc1O
  Measles inh: -0.67

> CCOC(=O)C1=C(C)NC2=C(C(=O)CC(c3ccccc3)C2)C1c1cc(OC)c(OC)c(OC)c1 (configuration not stated)
  Measles inh: 1.5

> COC(=O)c1cn(-c2ccccc2)nc1-c1ccc(C)cc1
  Measles inh: -0.03

Other records.
Measles inh | SMILES
-1.1 | O=C(NC1CCCCC1)c1ccc(Cn2c(=O)[nH]c3ccccc3c2=O)cc1
0.52 | COc1ccccc1N1C(N)=NC(N)=NC1(C)C
0.04 | OCCSc1nnc(Nc2ccccc2)s1
-0.52 | O=C(c1ccco1)N1CCN=C1SCc1ccc([N+](=O)[O-])cc1
2.3 | COc1ccc(OCC(=O)NC2CCCCCCCCCCC2)cc1
1.4 | COC(=O)c1sc(=S)n(C)c1C
0.88 | CS(=O)(=O)Nc1cccc(C2=NN(C(=O)c3ccc(F)cc3)C(c3cccs3)C2)c1 (configuration not stated)
-0.36 | CC1(C)C(C=C(Cl)Cl)C1C(=O)Nc1ccccc1C(F)(F)F (configuration not stated)

Following part
Measles inh | SMILES
0.38 | COc1ccc(Cn2c(=S)[nH]c3cc(C(=O)N4CCc5ccccc5C4)ccc3c2=O)cc1
0.32 | c1ccc(-c2nnc(-c3ccncc3)o2)cc1
0.89 | O=C(Nc1ccc2nn(-c3ccccc3)nc2c1)C(F)(F)F
-0.24 | CCOc1cc(C2C3=C(CCCC3=O)NC3=C2C(=O)CCC3)ccc1OCc1ccc(F)cc1
-0.05 | COc1ccccc1NC(=O)CSc1nc(-c2ccc(C)cc2)cn1-c1ccccc1
-0.87 | CC(C)(C)c1cn2c3ccccc3n(CCN3CCCCC3)c2n1
1 | COC(=O)C1=C(C)Nc2nnnn2C1c1ccc(OCc2ccccc2)cc1 (configuration not stated)
-0.51 | COc1cccc(OCc2nc(-c3ccccn3)no2)c1

Next part
Measles inh | SMILES
0.77 | Cc1ncc(NS(=O)(=O)c2ccc(NC(=O)NC3CCCCC3)cc2)c(C)n1
0.5 | COc1ccc(NC2OC(C(O)CO)C(O)C2O)cc1 (configuration not stated)
-0.55 | CCN(CC)CCNc1c2c(c(C#N)c3nc4ccccc4n13)CCCC2
-0.7 | COc1ccc(CN2CCC(N3CCN(c4ccccc4)CC3)CC2)cc1OC
-0.44 | CCC(=O)N1CCc2cc(Br)cc(S(=O)(=O)N3CCCC(C(=O)Nc4ccccc4C)C3)c21 (configuration not stated)
0.63 | CN(C)c1ccc(N2C(=O)c3ccccc3C2=O)cc1
-0.27 | CCOC(=O)C1CCN(c2cc(Nc3ccc4c(c3)OCO4)c3c4c(onc24)-c2ccccc2C3=O)CC1
0.13 | COc1ccccc1Nc1ncc(C(=O)N2CCC(Cc3ccccc3)CC2)c2ccccc12

Next section.
Measles inh | SMILES
0.47 | COc1cc(NC(=O)Cn2cnc3sc(C)c(S(=O)(=O)N4CCC(C)CC4)c3c2=O)cc(OC)c1OC
-1.7 | Cc1ccc2nc(NC(=O)C3CCCN(S(=O)(=O)c4cccc5nsnc45)C3)sc2c1 (configuration not stated)
0.84 | CC1=C(C(=O)OCC(C)C)C(c2ccc(Cl)cc2)NC(=O)N1 (configuration not stated)
0.47 | CCCNC(=O)NC(C)C12CC3CC(CC(C3)C1)C2 (configuration not stated)
-1.7 | CN1C(=O)NC(c2cccc(O)c2)C(C(=O)c2cccs2)C1(O)C(F)(F)F (configuration not stated)
0.31 | CC(CCc1ccccc1)NC(=O)C1c2ccccc2Oc2ccccc21 (configuration not stated)

Exported with tabs: entries from further up
Compound	Measles inh
CC(CCc1ccccc1)NC(=O)C1c2ccccc2Oc2ccccc21 (configuration not stated)	0.31
Cc1ccc2nc(NC(=O)C3CCCN(S(=O)(=O)c4cccc5nsnc45)C3)sc2c1 (configuration not stated)	-1.7
CC1=C(C(=O)OCC(C)C)C(c2ccc(Cl)cc2)NC(=O)N1 (configuration not stated)	0.84
CCCNC(=O)NC(C)C12CC3CC(CC(C3)C1)C2 (configuration not stated)	0.47
CN1C(=O)NC(c2cccc(O)c2)C(C(=O)c2cccs2)C1(O)C(F)(F)F (configuration not stated)	-1.7
COc1cc(NC(=O)Cn2cnc3sc(C)c(S(=O)(=O)N4CCC(C)CC4)c3c2=O)cc(OC)c1OC	0.47

Source: PubChem BioAssay

These rows are one share of the data. The share of hits here may be higher or lower than overall.
